NPYLR7 agonist: mosquito NPYLR7 agonism; HEK293T NPYLR7/Galpha15, GCaMP6s calcium fluorescence; activation, % at 10 µM; actives 0.15% (n = 270,000); in the data active means activation above about 40%;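 further: 0% = vehicle and 100% = reference agonist at the receptor; some compounds past the cut are filed as inactive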
NPYLR7 agonist max-min: recorded beside NPYLR7 agonist, whose call it bears; activation, %; measured here: Max-Min RFU normalised activation; some inactives read as strong as hits;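 span of the calcium signal over five minutes; 0% = vehicle and 100% = native peptide agonist; compound fluorescence can raise it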
Starred values were filed as active, the others as inactive; & = joins results of further samples. A portion of the library; the hit share may differ from the screen's.

SMILES | NPYLR7 agonist | NPYLR7 agonist max-min
Cc1[nH]c(/C=C2\C(=O)Nc3ccc(S(=O)(=O)Cc4c(Cl)cccc4Cl)cc32)c(C)c1C(=O)N1CCC[C@@H]1CN1CCCC1 | 20 | 25
Cn1c(C2C(=N)N(c3ccccc3)CC2=O)[n+](C)c2ccccc21 (stereo not drawn) | 7 | 10
COc1cc(NCC(c2ccccn2)N2CCOCC2)ncn1 (stereo not drawn) | 21 | 16
CSc1ccc(C(=O)CC(C)(C)C(=O)NC2CCC(C)CC2)cc1 (stereo not drawn) | -12 | -15
c1coc(CNCc2cn[nH]c2-c2cccs2)c1 | 5 | 2
CCn1c(C2CCN(C(=O)c3cc(CC(C)C)no3)CC2)nn(C)c1=O | 19 | 8
CCOP(=O)(CCCCNC(=O)c1ccc(SC(F)(F)F)cc1)OCC | -6 | -15
OC(COc1ccc2cc(Br)ccc2c1)Cn1ccnc1 (stereo not drawn) | -4 | -4
COc1cc2c(cc1CN1CCC(N3CCCC(O)C3)CC1)OCO2 (stereo not drawn) | 0 | -1
COc1cc(-c2nnc(SCCc3ccccc3)o2)cc(OC)c1OC | 4 | 7
COc1cc2c(cc1CN1CCc3[nH]nc(-c4ccccc4F)c3C1)OCO2 | 8 | 0
O=C(C1CCCC1)N(Cc1ccco1)Cc1nccn1Cc1cccc(C(F)(F)F)c1 | 25 | 25
CC(C)c1cc(C(=O)NN2C(=O)C3CCCCC3C2=O)cs1 (stereo not drawn) | -1 | -1
COCCN(Cc1ccc(F)cc1)CC(O)c1ccccc1 (stereo not drawn) | -2 | 4
CC(NCc1c(O)ccc2c1oc(=O)c1ccccc12)C(=O)O (stereo not drawn) | -10 | -18
Cc1sc2nc(NCC(C)O)n3nc(-c4ccccc4)nc3c2c1C (stereo not drawn) | -1 | 16
CN(C)C(=O)CCCC(=O)NC1c2ccccc2Oc2ccccc21 | 3 | -2
O=C(NCc1ccsc1-n1cccc1)c1cccc(F)c1 | 7 | 4
Cc1cc(=O)c(C(=O)NCCOc2ccc(Cl)cc2)nn1-c1ccc(Cl)cc1 | 5 | 13
Cc1cc(C)n2cc(CSc3nnc(SCc4cn5c(C)cc(C)nc5n4)s3)nc2n1 | -2 | -3
COc1ccc(CC(=O)N2CCN(c3ccc(-n4cccn4)nn3)CC2)cc1 | -5 | -8
COc1cc(/C(C#N)=C/N2CCOCC2)c([N+](=O)[O-])cc1OC | -11 | -16
Cc1cc(C)nc(-n2nccc2N)n1 | 4 | 2
O=C(Nc1ccc(F)c(F)c1)N1CCC2(CC1)SCCN2C(=O)c1ccc(F)cc1 | -5 | 6

A draw from above in order of heavy-atom count, largest number first.
SMILES | NPYLR7 agonist | NPYLR7 agonist max-min
Cc1cc(C)n2cc(CSc3nnc(SCc4cn5c(C)cc(C)nc5n4)s3)nc2n1 | -2 | -3
COc1ccc(CC(=O)N2CCN(c3ccc(-n4cccn4)nn3)CC2)cc1 | -5 | -8
COCCN(Cc1ccc(F)cc1)CC(O)c1ccccc1 (stereo not drawn) | -2 | 4

Additional entries follow:
SMILES | NPYLR7 agonist | NPYLR7 agonist max-min
Cc1nonc1NC(=O)c1cccc(Br)c1C | 1&0 | -1&30
Cc1ccsc1CN(CC(C)C)C(=O)C1CCN(Cc2cccn2C)CC1 | -5 | -7
CC(=O)c1ccc(N2CCN(S(=O)(=O)c3cccc(Cl)c3)CC2)c(F)c1 | 2 | 9
COc1ccc(CCN(C)C(=O)C2CCN(c3ncc(C(F)(F)F)cc3Cl)CC2)cc1OC | -2 | 1
C=CCNS(=O)(=O)c1cccc(C(=O)N(C)CCCC)c1 | 0 | -1
C=C(C)COc1ccccc1CN1[C@@H]2CC[C@H]1CNC(=O)C2 | -1 | -4
CN(CCNC1CCN(Cc2ccccc2)CC1)S(C)(=O)=O | 0 | -1
CN(Cc1cnn(-c2ccccc2)c1)S(=O)(=O)c1cc(Cl)cc(Cl)c1 | 2 | 4
CCc1nnc(NC(=O)CCN2C(=O)c3ccccc3C2=O)s1 | -7 | -7
Cc1cc(-c2ccccc2C(F)(F)F)nc(N)n1 | 0 | -1
COc1ccccc1C(=O)Nc1ccnn1C1CCN(C(=O)Cn2ccc(C)n2)CC1 | -5 | -3
COc1cccc([C@@H](C)NC(=O)c2c(C)noc2-c2ccc(C(C)(C)C)cc2)c1 | 4 | 0
C=C(Br)CNC(=O)Nc1ccc(NC(=O)C(C)C)cc1 | 6 | 5
O=C(N1CCOCC1)N1CCN(c2nccc(CCC(F)(F)F)n2)CC1 | -9 | -12
O=C(CC1CCCC1)N1CCC(Oc2cccc(C(=O)N3CCOCC3)c2)CC1 | 12 | 8
Cc1ccc(S(=O)(=O)NC2CCSc3c(F)cccc32)cc1C (stereo not drawn) | 4 | 5
Cc1cccc(OCC(=O)NC(c2ccccc2)c2nccn2C)c1 (stereo not drawn) | 8 | 2
CSCc1cccc(C(=O)Nc2nnc(C3CC3)s2)c1 | 6 | 7
Brc1ccc(-c2nnc(CSc3nc4ccccc4o3)o2)cc1 | -2 | 19
COc1ccc(-c2nc3ccc(Cl)cc3c(=O)o2)cc1OC | -5 | -8
COc1cccc(NC(=O)Nc2ccc(N3CCc4ccccc4C3)c(C(=O)NC3CC3)c2)c1 | 0 | 4
Cc1ccc(C)c(CN(CCN2CCOCC2)CC(O)COCc2ccco2)c1 (stereo not drawn) | 19 | 12
O=C(c1cccs1)N1CCC(c2nc(-c3ccncc3)no2)CC1 | -8 | -7
Cc1ccc2[nH]cc(C3CCN(S(=O)(=O)c4cccc(OC(F)(F)F)c4)CC3)c2c1 | 37 | 36
COc1cc(Br)cc2cc(C(=O)NNC(=O)c3ccncc3)c(=O)oc12 | 0 | -5
Cc1ccccc1Nc1nc(NCC2CCCO2)nc2c1cnn2-c1ccccc1 (stereo not drawn) | 6 | 5
O=C(NCc1ccco1)NCc1cccnc1Oc1cccc(C(F)(F)F)c1 | 0 | -1
Cc1ccc(C2=N/C(=C\C(Cl)=C\c3ccccc3)C(=O)O2)cc1C | 1 | -7
CCCCC1C=CCN1S(=O)(=O)NCc1ccccc1 (stereo not drawn) | 5 | 3
O=C1CCN(c2ncnc3sccc23)CCN1 | 10 | 5
CSc1ccc(OCc2nnc(-c3cccs3)o2)cc1 | 9 | 6
Cc1cccc(OCCN(C)C(=O)C2CSC3(C)CCC(=O)N23)c1 (stereo not drawn) | 8 | 3
CCN(CC)c1ccc(CN(Cc2ccc(F)cc2)C(=O)C2CCC2)c(OS(C)(=O)=O)c1 | -8 | -5
CCOC(=O)CCCSc1nnc(-c2ccccc2F)n1-c1ccc(C)cc1 | -4 | -2
N#Cc1c(-c2ccc(O)cc2)c2c([nH]c1=S)CCC2 | -1 | -4
CCn1ccnc1CNC(=O)CCSc1ccc2c(c1)OCCO2 | 5 | 3
Cc1cc(C)c(S(=O)(=O)NCc2nnnn2C2CCCCC2)c(C)c1 | 18 | 10
CC1=NC(C(F)(F)F)(C(F)(F)F)N=C2C=CC(Br)=CN12 | 0 | -2
CC12CCC(C(=O)N3CCCC3)(OC1=O)C2(C)C (stereo not drawn) | 6 | 2
CS(=O)(=O)NCCOc1cc(N2CCCC2)ncn1 | -1 | -2
Cc1noc(C)c1CN(C)Cc1cnc(N2CCOCC2)nc1 | 11 | 6
CCS(=O)(=O)Nc1ccc(NC(=O)CCc2cccc(Cl)c2)cc1OC | 7 | 3
CN(C)c1ccc(NC(=O)Nc2ccccc2C(F)(F)F)cc1C(=O)NC1CC1 | 14 | 19
CCC(C(=O)N1CCN(C(C(=O)Nc2cccc(Cl)c2)C2CCCC2)CC1)c1ccccc1 (stereo not drawn) | -2 | -1
O=C(C=CN1CCC(CCCC2CCN(C=CC(=O)C(F)(F)F)CC2)CC1)C(F)(F)F | 8 | 9
CN(Cc1ccccc1Cl)Cc1cnc(S(C)(=O)=O)n1CC1CCCO1 (stereo not drawn) | 4 | -3
CN(CCC1CCCCO1)C(=O)CCC(=O)NC1CCCC1 (stereo not drawn) | 3 | -4
CCC(CC)n1nc(C)cc1NC(=O)c1ccc(=O)[nH]c1 | 8 | -5

Random excerpt: 2 entries already listed.
SMILES | NPYLR7 agonist | NPYLR7 agonist max-min
O=C(c1cccs1)N1CCC(c2nc(-c3ccncc3)no2)CC1 | -8 | -7
CCc1nnc(NC(=O)CCN2C(=O)c3ccccc3C2=O)s1 | -7 | -7

Carrying on:
SMILES | NPYLR7 agonist | NPYLR7 agonist max-min
CCOC(=O)CC(=O)N1CC(=O)N2CC(C)c3ccccc3C2C1 (stereo not drawn) | 37 | 34
CCOc1ccc(-c2cnc(-c3cnc(CC)nc3)[nH]2)cc1 | -2 | -4
COc1ccccc1N1CCN(c2cc(Oc3cc(C)ccc3Cl)ncn2)CC1 | 21 | 19
Cn1cc(CN2CCCC(C(N)=O)C2)c(-c2ccc(Oc3ccccc3)cc2)n1 (stereo not drawn) | 15 | 9
C#CCn1c(O)c(N=NC(=O)CNC(=O)c2ccccc2Cl)c2ccccc21 | -1 | -7
CCc1csc(CCNC(=O)C(c2cccc(C)c2)N(C)C)n1 (stereo not drawn) | -6 | -9
O=C(NC(CN1CCCC1)c1ccccc1)c1c(O)cc(F)cc1F (stereo not drawn) | 5 | 3
CCN(CC)C(=O)N1CCC2(CC1)CN(Cc1ccccc1F)CCN2C | 3 | -1
Cc1ccc(C)c2c1sc(=NC(=O)CN1C(=O)CCC1=O)n2C | 3 | 3
c1cn2c(NC3CCCCC3)c(-c3ccsc3)nc2cn1 | 6 | 1
Cc1ccccc1-c1ncc(CN2CCN(Cc3ccc(F)c(F)c3)C(CCO)C2)cn1 (stereo not drawn) | 12 | -1
COc1cccc(-c2nnc(SCc3ccc(C(=O)Nc4ccc(C(C)C)cc4)cc3)n2-c2ccccc2OC)c1 | -2 | -3

Part of the list above, with values under each structure.
Fields: NPYLR7 agonist	NPYLR7 agonist max-min
Cn1cc(CN2CCCC(C(N)=O)C2)c(-c2ccc(Oc3ccccc3)cc2)n1 (stereo not drawn)
→ 15	9
C#CCn1c(O)c(N=NC(=O)CNC(=O)c2ccccc2Cl)c2ccccc21
→ -1	-7
CCc1csc(CCNC(=O)C(c2cccc(C)c2)N(C)C)n1 (stereo not drawn)
→ -6	-9

Next part:
SMILES | NPYLR7 agonist | NPYLR7 agonist max-min
CC(C)N1CCC(C(=O)NCC2(c3ccc(F)cc3)CCOC2)CC1 (stereo not drawn) | 4 | -9
C=C(C)COc1ccccc1C(=O)N1CCCOCC1 | 0 | 5
COc1c(-c2ccccc2)sc2nc(C)cc(C)[n+]12 | -11 | -17
COc1ccc(NCc2nn3cc(-c4ccc(OC)c(OC)c4)c4c3n2CCCC4)cc1 | 0 | -4
COc1ccc(-c2noc(CN3CCCCC3c3cccnc3)n2)c(OC)c1OC (stereo not drawn) | 4 | 3
CCOC(=O)N1CCN(c2cc(=O)n(-c3ccc(C)cc3)c(=O)[nH]2)CC1 | 8 | 10
COc1ccc(CCCC(=O)n2ccn(-c3ccc4c(c3)OCO4)c2=O)cc1 | -10 | -13
CNC(=O)[C@@]1(OCc2cccc(C)c2)CC(OCc2cccc(F)c2F)[C@H](O)[C@H](O)C1 (stereo partly drawn) | 8 | 17
CCC1=NOC(Cn2nc(CC3CCNCC3)n(-c3ccccc3)c2=O)C1 (stereo not drawn) | 16 | 4
O=C1/C(=C/c2ccc(Br)cc2)C=C(c2ccccc2)N1c1ccccc1Cl | -1 | 2
C=C(C)CNC(=O)c1cc(N2CCCC(C)C2)nc2ccccc12 (stereo not drawn) | 6 | -2
CC(=O)C(C=Nc1ncc(C(F)(F)F)cc1Cl)=C(C)O | -2 | -7
CCOc1ccc(-c2ccnc(N3CCN(C(=O)c4ccc(F)c(C)c4)CC3)n2)cc1 | 5 | 1
O=C(NC(Cc1ccccc1)c1nnc(SCc2ccccc2)n1-c1ccc([N+](=O)[O-])cc1)c1ccc(Br)cc1 (stereo not drawn) | 17 | 24
Cc1ccc2[nH]c3c(=O)n(CCC(=O)O)cnc3c2c1 | -1 | -7
CCCc1nc(N2CCCN(C(=O)c3ccc([N+](=O)[O-])cc3)CC2)c2c(-c3cccc(C(F)(F)F)c3)noc2n1 | -7 | 16
Cc1cc(=O)[nH]c(-n2nc(C)c(CCC(=O)Nc3ccc(C(C)C)cc3)c2C)n1 | 2 | 2
O=C(CCCN1C(=O)c2cccc3cccc(c23)C1=O)Nc1ccc2c(c1)Cc1ccccc1-2 | -5 | -13
CC1CC2C3CCC4=CC(=O)C=CC4(C)[C@@]3(Cl)C(O)CC2(C)C1(O)C(=O)CO (stereo partly drawn) | -2 | -7
Cn1nc(NC(=O)Cc2cccs2)c2c1NC(=O)CC2c1ccco1 (stereo not drawn) | -22 | -23
CCCCn1nc(C)c(C2Nc3ccccc3C(=O)N2C2CC2)c1Cl (stereo not drawn) | 1 | 0
O=C1C(=Cc2ccco2)SC(=S)N1N=Cc1ccco1 | 21 | 28
Cc1ccccc1CCC1CCCN(C(=O)c2[nH]ncc2Cl)C1 (stereo not drawn) | 4 | 1
CCCn1c(N)c(CC)c(=O)[nH]c1=O | 0 | 5

Record cards (already shown). Order of screens: NPYLR7 agonist, NPYLR7 agonist max-min
Cc1ccc2[nH]c3c(=O)n(CCC(=O)O)cnc3c2c1 is entered as -1, -7
CCOc1ccc(-c2ccnc(N3CCN(C(=O)c4ccc(F)c(C)c4)CC3)n2)cc1 is entered as 5, 1

Later entries:
SMILES | NPYLR7 agonist | NPYLR7 agonist max-min
CCN(C(=O)c1ccc(=O)n(Cc2ccc(F)cc2)n1)c1ccccc1 | 1 | 2
COc1ccc(C(C)C)cc1-c1cnn2c(NCCc3ccccn3)ccnc12 | -8 | -10
COc1ccccc1OC1CCN(C(=O)c2ncc[nH]2)CC1 | -4 | -6
Cc1nc(SCc2cccc(C(=O)NCCN3CCOCC3)c2)nc(N(C)Cc2ccccc2)c1C | -2 | 4
CCOC(=O)c1cccnc1-c1ccc(S(C)(=O)=O)cc1 | -1 | -2
COc1ccc(-c2nn(CC(=O)N(C)c3ccccc3)c(=O)c3nc(C)sc23)cc1 | 2 | -1
Cc1cc2[nH][nH]c(=O)c2c(C)n1 | -4 | -9
